# Assay outcomes as filed in PubChem BioAssay.
# D2 agonist: agonists of human D2 dopamine receptor (beta-arrestin); P14416; DiscoveRx PathHunter D2 beta-arrestin, luminescence, 90 min; 100% = 57 uM dopamine signal; activation, % (concentration not given with the values); 0.084% of 360,000 active; in the data active = activation above about 40%; inconclusive = about 15% to 40%; inactive = below about 15%; further: compound concentration not given in the record; the text of the record calls up to 30% inactive
#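 Agonist mode: compounds alone added to overnight-plated D2 PathHunter cells for 90 min at 37 C, with 57 uM final dopamine (EC100) defining full response. Beta-arrestin recruitment detected by chemiluminescent reagent, read after 1 h at ambient temperature.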
# TRPML1 blocker: blocks the human TRPML1 channel; 0.02% of 390,000 active; activity change, negative = inhibition, % (concentration not given with the values); TRPML1-inducible cells, Ca2+ dye fluorescence, FDSS; active compounds read low; inhibition of EC80 agonist-evoked calcium signal; Q9GZU1; AID 624415; in the data active means activity change below about -50%; inconclusive means about -30% to -50%; inactive means above about -30%;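 further: stimulus is agonist 54-4 at its EC80 concentration; on the % scale 0 is the no-effect control and ±100 the full control effect; the text of the record puts the active cut at -80%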
#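 Tet-induced TRPML1-DL cells loaded with Ca8 no-wash calcium dye were read kinetically on FDSS. Compound addition was followed by EC80 agonist 54-4 (4 uM final); inhibition was read over 110 s.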
# TRPML1 agonist: activates the human TRPML1 channel | TRPML1-expressing cells, Ca2+ dye fluorescence, FDSS; host cell line not named in the record; reference of the full effect not given here | Q9GZU1 | 0.12% of 410,000 active | activation, % (concentration not given with the values); in the data active = activation above about 50%; inconclusive = about 30% to 50%; inactive = below about 30%; further: 0% is about no effect; the text of the record puts the active cut at 80%
#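 Cells: TRPML1-DL, 1X Tet inducer, ~16 h at 37 degrees C/5% CO2. Dye: ABD Ca8 no-wash + quencher, 45-90 min RT. Read: 10 s baseline, compound add, 110 s agonist phase; 54-4 EC80 (4uM final), 110 s antagonist phase.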
# D2 potentiator: potentiates the human D2 dopamine receptor allosterically | P14416 | DiscoveRx D2 beta-arrestin cells, luminescence, 90 min; 100% = 57 uM dopamine signal | potentiation, % (no concentration beside the values) | 0.23% of 360,000 active | AID 624464; active = potentiation of 50% or more; inconclusive = 30% to 50%; inactive = 30% or less;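 further: compound concentration not given in the record; tested on top of an EC20 dose of dopamine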
#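 D2 cells co-treated with compound plus 50 nM dopamine (EC20) for 90 min at 37 deg C to detect potentiation. Beta-arrestin recruitment was read as enzyme-fragment luminescence after 1 h at ambient temperature. Full response was set by 57 uM dopamine.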
# Six1-Eya2 inh: blocks human Six1 binding to Eya2; 0.56% of 360,000 active; activity change, % (no concentration beside the values); AlphaScreen GST-Six1/His-Eya2 binding, biochemical; active compounds read low; control for the full effect not named in the record; AID 651725; Q15475+O00167; in the data active = activity change below about -65%; inconclusive = about -30% to -65%; inactive = above about -30%; further: on the % scale 0 is the no-effect control and ±100 the full control effect
# Target sequence (O00167 whole entry, looked up): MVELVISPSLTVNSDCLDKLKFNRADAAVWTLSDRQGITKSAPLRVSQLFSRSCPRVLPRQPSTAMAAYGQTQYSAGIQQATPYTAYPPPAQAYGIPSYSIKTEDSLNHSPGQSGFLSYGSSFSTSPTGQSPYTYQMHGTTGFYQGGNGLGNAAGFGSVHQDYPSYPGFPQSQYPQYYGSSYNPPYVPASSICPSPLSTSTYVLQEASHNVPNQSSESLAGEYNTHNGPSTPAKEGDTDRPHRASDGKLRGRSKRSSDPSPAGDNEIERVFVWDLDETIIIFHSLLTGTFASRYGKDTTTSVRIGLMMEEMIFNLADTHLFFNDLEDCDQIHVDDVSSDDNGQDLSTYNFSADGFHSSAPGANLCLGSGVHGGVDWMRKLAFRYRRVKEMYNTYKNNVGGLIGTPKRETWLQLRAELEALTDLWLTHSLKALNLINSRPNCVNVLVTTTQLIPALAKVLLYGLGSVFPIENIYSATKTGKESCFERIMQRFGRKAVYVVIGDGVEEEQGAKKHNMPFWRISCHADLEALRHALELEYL
# Target sequence (Q15475 whole entry, looked up): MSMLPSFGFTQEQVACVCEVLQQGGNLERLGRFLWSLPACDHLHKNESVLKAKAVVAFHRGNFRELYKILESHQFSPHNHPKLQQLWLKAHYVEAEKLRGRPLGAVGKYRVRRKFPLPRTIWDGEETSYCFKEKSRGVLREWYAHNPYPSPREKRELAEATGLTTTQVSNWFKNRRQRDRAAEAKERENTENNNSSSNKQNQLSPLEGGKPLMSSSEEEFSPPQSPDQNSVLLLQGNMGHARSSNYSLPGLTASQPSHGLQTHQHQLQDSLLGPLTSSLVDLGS
#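 GST-Six1 + His-Eya2 (5X stock: 250/500 nM); Tris pH 8.0, 300 mM NaCl, 0.05% BSA, 0.02% Tween 20; GSH donor/Ni acceptor beads; 1 h 37 °C dark; AlphaScreen readout.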
# PINK1 expr mod: changes PINK1 expression; PINK1 immunofluorescence, high-content cytometry, 24 h; Potency, µM (series often up to 76.6 µM), without a hit: top-dose activation (PINK1 increase), hits mostly activators; 0.2% of 410,000 active; AID 624263; active = well fitted activation curve with a large enough effect; inconclusive = small, poorly fitted or top-dose-only effect; inactive = flat fitted curve, though single readings scatter; cell line not stated here;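 further: potency means the concentration at half of the fitted maximal effect; % of control where 0% means no effect; nearly all actives have a fitted effect of over 65% in size; a mitochondrial uncoupler was the plate control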
#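 PINK1 protein level read as immunofluorescence by microplate cytometer in a fixed, stained stable cell line after 24 h exposure to five compound concentrations, with CCCP as control.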
# * hit, by the source's call; ? = inconclusive; . = no result given; & = joins results of further samples; [ ] = another dose, or the depositor's remark.
SMILES,D2 agonist,TRPML1 blocker,TRPML1 agonist,D2 potentiator,Six1-Eya2 inh,PINK1 expr mod
O=C(OCCOc1cccc(Cl)c1)c1ccc2ncsc2c1,0.3,7.4,0.8,4.8,44.0,3.2%
CCc1nc(OCc2ccccc2)c2sc3nc4c(cc3c2n1)COC(C)(C)C4,-0.2,-8.3,0.3,-5.1,2.3,3.3%[38.3 µM]
COCCNC(=O)Cn1c(=O)oc2cc(S(=O)(=O)N3CC(C)CC(C)C3)ccc21 (stereo not given),-21.3,1.5,-0.7,-10.1,2.7,0.4%
CCOC(=O)C1CCCN(C(=O)c2ccc(OC)c([N+](=O)[O-])c2)C1 (stereo not given),1.0,?,0.3,-8.9,-1.9,2.3%
O=C(OC1CCOC1=O)c1cc(-c2cccs2)nc2ccccc12 (stereo not given),-3.6,-8.3,-0.1,-4.2,-1.3,0.3%
COc1ccc(C(CNC(=O)c2cccc(S(=O)(=O)Nc3ccc(F)cc3)c2)N(C)C)cc1 (stereo not given),-7.6,-3.5,0.2,-30.7,-2.4,0.9%
Cc1cc(OCC(=O)OC(C)C(=O)Nc2ccc(N3CCOCC3)cc2)ccc1Cl (stereo not given),4.1,-9.9,0.9,-3.6,-3.1,2.6%
O=C(Cc1c[nH]c2ccccc12)Nc1nccs1,-3.3,-14.0,0.3,-11.2,-0.5,0.1%
COc1cccc(-c2n[nH]c3c2CCC3)c1,-1.7,-2.3,-0.7,-0.3,3.2,0.2%
COc1ccc(OC)c(-n2nnnc2SCC(=O)NCCc2ccccc2)c1,-1.0,0.7,4.4,-10.5,2.5,1.7%[38.3 µM]
COC(=O)c1cc(NS(=O)(=O)c2ccc(OC)c(OC)c2)ccc1Cl,-1.2,-11.3,0.0,-1.6,11.5,2.8%
CS(=O)(=O)N1CCc2cc(C(=O)NCCc3ccccc3)ccc21,.,-8.4,-1.0,.,.,1.3%
Cc1ccnc(NS(=O)(=O)c2ccc(NC(=O)c3ccc([N+](=O)[O-])s3)cc2)n1,2.7,-1.3,2.0,-0.6,-6.1,4.3%
CCOC(=O)c1nnc2ccnn2c1N,-3.2,5.0,0.3,-7.7,-4.8,2.9%[38.3 µM]
N#CCN1CCN(CC(=O)c2ccc(Br)cc2)CC1,-3.1,28.5,5.1,-2.4,1.5,1.5%
Cc1cc(C)n2nc(C(=O)N(C)C(c3ccccc3)c3ccccc3)nc2n1,5.2,6.6,-1.0,-2.1,0.8,0.0%
COc1ccc(CNC(=O)COC(=O)[C@@H]2CCCN2C(=O)c2cccs2)cc1,-1.4,14.9,-0.7,-2.2,1.9,-2.5%
Cc1cccc(OCc2nc(C#N)c(NCc3ccc4c(c3)OCO4)o2)c1,-2.4,17.8,-1.0,-2.9,-25.2,-0.4%
O=C(CN1CCOCC1)N1c2ccccc2Sc2ccc(Cl)cc21,0.6,1.7,-1.1,5.3,5.1,1.5%
CCN1C(=O)c2ccccc2Sc2ccc(C(=O)NCCCN3CCCCC3)cc21,-3.8,23.7,0.5,-32.8,-1.5,1.6%
NC(=O)C1CCN(C(=O)CSc2nc3ccccc3[nH]2)CC1,-1.0,-11.6,-0.8,1.7,1.2,-0.8%
Cc1cc(C)c(S(=O)(=O)NCc2ccc3c(c2)OCO3)c(C)c1,-3.0,14.4,0.2,-6.9,3.8,0.2%
O=C(CCNC(=O)c1ccc(Br)cc1)Nc1cccc(S(=O)(=O)N2CCCC2)c1,-3.8,1.6,2.3,-25.5,-4.4,0.0%
Cc1ccc(CSc2nnc(SCC(=O)N/N=C/c3ccc(C(=O)O)cc3)s2)cc1,-0.7,14.1,-0.8,-2.4,-12.6,-0.3%
COc1ccc(OC)c(CNC(=O)C2CCC(=O)N(CCCN3CCCC3=O)C2)c1 (stereo not given),1.4,-14.2,0.3,23.2,7.3,1.9%
O=C(CCC(=O)Nc1cccnc1)Nc1cccnc1,-6.5,-5.0,-0.1,-16.3,2.2,1.6%
CCOc1cc(/C=C(\CC(=O)O)c2nc3ccccc3s2)ccc1OCC(=O)Nc1cccc(C(F)(F)F)c1,-4.8,-2.6,4.3,-9.3,-4.2,0.6%
COc1ccccc1N(C)S(=O)(=O)c1ccc(C(=O)NC2CCCCCC2)cc1,-1.6,7.0,0.9,-4.8,-3.2,0.1%
C=CCN([C@H](C(=O)OC)C(C)C)S(=O)(=O)CCNCc1ccccc1,-0.3,26.8,-1.0&-0.3,-48.2,-7.7,2.9%
COc1ccc(/C=N/NC(=O)Cc2csc(Nc3cccc(C(F)(F)F)c3)n2)c(OC)c1,1.2,-18.7,1.1,10.3,1.8,-1.1%
Cc1cc(C)cc(N(CCC(=O)Nc2nnc(C3CC3)s2)S(=O)(=O)c2ccc(Cl)cc2)c1,-0.7,-10.2,4.2,-4.4,4.2,2.9%
CN(CCc1ccccc1)C(=O)c1cccc(NC(=O)Cc2cccc(NC(=O)C3CCCN(C(=O)c4ccccc4)C3)c2)c1 (stereo not given),-1.1,23.9,3.2,-3.5,2.5,0.9%
Cn1cnc2c1c(=O)n(Cc1cccc(F)c1)c(=O)n2C,-4.3,.,.,5.0,10.9,1.1%
COc1cccc(/C=N/Nc2nc3ccccc3[nH]2)c1O,-3.8,-7.5,-0.5,-12.0,-7.9,2.6%
Cc1cccc(NC(=O)C2(c3cccs3)CCOCC2)c1,-6.1,-13.6,0.1,-9.7,3.4,6.1%
CC(C)c1ccc(NC(=O)NCc2ccccn2)cc1,0.6,14.8,-0.4,-16.4,-0.8,0.4%
C=CC(COCc1ccccc1)N([C@@H](Cc1ccccc1)C(=O)OC)S(=O)(=O)c1ccccc1Br (stereo not given in full),-2.6,73.6,6.1&3.4,-9.8,9.0,0.5%
COc1ccc(NC(=S)N2CCOCC2)c(OC)c1,-0.8,-1.1,0.3,-22.6,-1.6,-0.1%
Cc1ccc(C(=O)n2nnc3ccccc32)cc1[N+](=O)[O-],0.8,-10.8,0.1,6.2,18.8,0.7%
CCCNC(=O)c1ccc(-c2nn(C)c(=O)c3ccccc23)cc1,11.9,-5.3,0.1,-0.8,5.5,0.8%

# Record cards, as listed above. Order of screens: D2 agonist, TRPML1 blocker, TRPML1 agonist, D2 potentiator, Six1-Eya2 inh, PINK1 expr mod
# Listed for CCCNC(=O)c1ccc(-c2nn(C)c(=O)c3ccccc23)cc1 : 11.9, -5.3, 0.1, -0.8, 5.5, 0.8%
# Listed for COc1ccc(/C=N/NC(=O)Cc2csc(Nc3cccc(C(F)(F)F)c3)n2)c(OC)c1 : 1.2, -18.7, 1.1, 10.3, 1.8, -1.1%
# Listed for COc1ccc(OC)c(CNC(=O)C2CCC(=O)N(CCCN3CCCC3=O)C2)c1 (stereo not given) : 1.4, -14.2, 0.3, 23.2, 7.3, 1.9%
# Listed for CC(C)c1ccc(NC(=O)NCc2ccccn2)cc1 : 0.6, 14.8, -0.4, -16.4, -0.8, 0.4%
# Listed for COc1cccc(/C=N/Nc2nc3ccccc3[nH]2)c1O : -3.8, -7.5, -0.5, -12.0, -7.9, 2.6%

# Other entries.
SMILES,D2 agonist,TRPML1 blocker,TRPML1 agonist,D2 potentiator,Six1-Eya2 inh,PINK1 expr mod
CCCCc1c(O)nc2sccn2c1=O,-2.0,8.3,-0.5,-9.7,3.3,1.6%
COc1cccc(-n2cnc3sc(-c4ccccc4)cc3c2=O)c1,-1.5,49.2,0.6,-3.1,-0.1,1.1%
CCC(C)C(=O)OC1CCC=C2C=CC(C)C(CCC3CC(O)CC(=O)O3)C21 (stereo not given),0.0,-11.5,1.2,-18.0,-0.6,?
CC(=O)c1cccc(NC(=S)NC(=O)c2cccc(Cl)c2)c1,-4.8,10.0,-0.5,-20.0,-7.6,13.5%
Cc1ccc(NC(=O)C2COc3ccccc3O2)cc1 (stereo not given),-2.6,9.8,-0.4,-30.1,0.5,0.5%
OC(CNCc1ccc(F)cc1)(c1ccccc1)c1ccc(F)cc1 (stereo not given),0.2,-18.1,6.5,-22.0,16.3,1.5%
N#Cc1c(C(F)(F)F)cc(-c2cccs2)nc1SCC(=O)Nc1cccc(Cl)c1,.,4.3,0.0,.,.,1.5%
O=C(CN1CCCCCCC1)Nc1ccc(Cl)cc1Cl,-3.1,-5.8,1.7,-20.6,-7.0,8.3%
CC(C)C[C@H]1COc2cccc(N3CCSCC3)c2S(=O)(=O)N1,.,.,-0.2,.,-5.1,-0.6%
Cn1cc(Cl)c(-c2n[nH]c(=S)n2C2CCCCC2)n1,9.2,13.3,0.1,1.8,6.3,1.6%
CN1/C(=C/c2cccc[n+]2C)Sc2ccccc21,1.2,16.9,0.4,-3.5,-1.6,17.8µM*
Cc1ccc(Cn2c(C(=O)O)c(CNC3CCCCCC3)c3ccc(C)cc32)cc1,.,-6.2,-0.3,.,.,0.2%
Oc1ccc(Cc2ccccc2Cl)c(O)c1,2.4,11.4,1.6,-17.0,-1.6,6.8%
COc1ccc(-c2nc3ccccc3nc2-c2ccccc2)cc1OC,3.6,0.0,3.4,4.5,60.9,1.1%
O=C(NCc1ccc2c(c1)OCO2)Nc1ccc2ccccc2c1,3.5,-3.3,0.8,-13.5,2.6,10.7%
COc1ccccc1NC(=O)C1CC(=O)N(c2ccc(F)cc2)C1 (stereo not given),0.9,-9.1,-0.4,0.7,-0.3,0.3%
COC(=O)c1c(NC(=O)COc2ccc(Cl)cc2Cl)sc2c1CC(C)(C)NC2(C)C,-1.0,41.7,0.7,-0.5,3.3,-0.8%
COc1cc(C(=O)OCC(=O)Nc2cc(S(=O)(=O)N3CCOCC3)ccc2C)ccc1OCC(C)C,-2.4,9.4,2.6,-67.0,-4.9,-3.8%
COc1cc(NC(c2ccccc2)c2ccccc2)cc(OC)c1OC,-5.7,1.2,1.0,1.8,-0.9,-0.9%
CCN1CCCC1CN(Cc1cc2cc(C)ccc2[nH]c1=O)C(=O)Nc1ccccc1OC (stereo not given),-2.9,2.7,-0.6,-11.4,-10.6,-0.1%
CCCc1cc(=O)[nH]c(SCC(=O)N(Cc2ccccc2)C(C)C)n1,-2.5,-2.5,-0.2,2.0,4.0,-1.1%
COc1ccccc1CN(C)C(=O)c1sccc1-c1ccccc1,-4.8,15.5,0.8,-12.4,0.0,-0.6%
CCn1c(=O)c2c(nc(SCC(=O)Nc3ccccc3)n2C)n(C)c1=O,-2.5,-8.6,-0.9,-0.1,-2.6,9.3%
O=C(O)C1CC=CCC1C(=O)Nc1cccc(Cl)c1 (stereo not given),-1.7,0.7,-0.6,-2.4,-11.7,-1.2%
COc1cccc(-c2ccc(NC(=O)C3CCCN(Cc4cnc(C)n4C)C3)cc2)c1 (stereo not given),1.5,-14.1,0.6,-5.0,-14.6,6.5%
COc1ccc(-c2nn(-c3ccccc3)cc2C(=O)NC(=S)N2CCOCC2)cc1OC,0.3,6.7,2.0,-0.4,-0.6,0.0%
COc1ccc(CCNC(=O)c2ccc3c(c2)ncn3-c2ccc(C(C)C)cc2)cc1OC,.,-3.2,1.5,.,.,0.5%
